Screening data as filed in PubChem.
Sa growth inh: S. aureus growth inhibition at 42 and 30 °C, primary screen, LtaS inhibitor project, RN4220, two temperatures. OD600, 20 h, 42 °C; hits give low values. relative growth, % (no concentration beside the values). hit rate 0.53% among 170,000. AID 720641, 2013;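 active means growth at 42 °C up to 50% and 20 or more points under that at 30 °C, or under 10% at both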;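 further: 300 nL library stock went into each well; scaled to the means of positive and negative controls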
HCMV NEC inh: inhibitors of HCMV UL50-UL53 interaction, biochemical, HTRF. normalized percent inhibition. AID 1918969, 2023. hit rate 0.15% among 190,000. HCMV UL50-UL53 nuclear egress complex (human cytomegalovirus). inhibition, % (no concentration beside the values);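 active means both replicates at 50% or more, plus weaker picks with an unusually low signal ratio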;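 further: stock transfer was 100 nL into about 20 µL; 0% = negative control wells and 100% = wells with untagged competitor protein; inactives centre near -12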
GIV Gai3 FP: inhibitors of GIV peptide binding to Galpha-i3, primary screen, biochemical, fluorescence polarization, FITC-GIV GBA peptide, rat Galphai3; Guanine nucleotide-binding protein G(i) subunit alpha-3 (Rattus norvegicus), P08753; 90 min; hits give low values; scaled: aluminum fluoride 0%, vehicle 100%; percent of control (FP), % (test concentration not listed); hit rate 0.42% among 210,000; AID 1224905, 2016;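 active means replicate mean at 85% of control or lower, very high polarization wells dropped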;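 further: wells of about 15 µL received 100 nL stock; the first replicate is given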
Target sequence (P08753 whole entry, looked up): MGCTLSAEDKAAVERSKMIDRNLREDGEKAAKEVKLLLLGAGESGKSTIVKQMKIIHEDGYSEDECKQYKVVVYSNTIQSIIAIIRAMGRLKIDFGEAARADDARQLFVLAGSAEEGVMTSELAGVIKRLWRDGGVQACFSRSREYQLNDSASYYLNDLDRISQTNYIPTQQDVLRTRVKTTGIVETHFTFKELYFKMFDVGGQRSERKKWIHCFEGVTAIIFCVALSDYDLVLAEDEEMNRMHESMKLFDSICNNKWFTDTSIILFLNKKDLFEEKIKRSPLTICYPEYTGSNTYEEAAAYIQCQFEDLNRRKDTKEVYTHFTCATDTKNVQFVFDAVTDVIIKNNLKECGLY
Sa growth inh second temp: recorded beside Sa growth inh, whose call it bears; relative growth, %; measured here: growth at 30 °C;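 optical density after 20 h as mean of two plates; 100% = untreated growth and lower means inhibition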
Active calls of the source: *; . = no result given; & = joins results of further samples.

SMILES	Sa growth inh	Sa growth inh second temp	HCMV NEC inh	GIV Gai3 FP
O=C1C(Sc2ncn[nH]2)=C/C(=N/S(=O)(=O)c2ccc(F)cc2)c2ccccc21	1.1*	0.8*	2.4	3.7*
N#CCCn1cc(C(=O)CSc2nnc(-c3ccccc3Cl)n2C2CCCC2)c2ccccc21	63.0	56.6	-16.7	.
CN(C)c1ccc(C2=CC(C3CC3)=C(C#N)C(=C(C#N)C#N)N2)cc1	87.3	87.1	10.6	104.9
O=C(COc1ccccc1F)NCCc1ccc2c(c1)OCCO2	91.8	96.4	-12.5	.
COc1ccc(Nc2cc(N(C)C)c3nonc3c2[N+](=O)[O-])cc1	.	.	-65.5	104.6
Cn1c(=O)c2sccc2n2c(CCC(=O)NCc3ccc(Cl)cc3)nnc12	96.6	100.2	20.6	102.7
COc1cc(/C=C2\C(=O)NC(=S)N(c3ccc(Cl)cc3)C2=O)cc([N+](=O)[O-])c1O	.	.	-45.2	104.9
COc1cccc(CN2c3ccccc3-c3nc(SCC(=O)Nc4cccc(C)c4)ncc3S2(=O)=O)c1	105.0	85.8	-7.6	104.9
COc1ccccc1CCNC(=O)CCn1c(=O)c2cccn2c2ccc(F)cc21	173.4	68.6	-19.5	96.7
CC(=O)OCc1c(C)c(C)c(C)c(C)c1C	103.4	90.0	-16.1	103.9
CCOC(=O)c1c(NC(C)=O)c2c3c(sc2n1Cc1nc(-c2ccc(Cl)cc2)oc1C)CCCC3	112.0	88.1	-16.8	101.7
O=C(O)CCN1C(=O)/C(=C\c2ccccc2)SC1=S	93.3	89.3	-80.3	108.1
COC(=O)C(CC(C)C)NC(=O)c1cc(-c2ccccc2)nc2ccccc12 (stereo unspecified)	106.9	84.7	.	106.9
C=CCSc1nc(O)c(CC)c(=O)n1-c1ccccc1	113.0	107.4	8.7	100.8
Cc1cc(NC(=O)CSCC(=O)N2CCN(c3ccccc3)CC2)no1	95.1	90.1	-5.9	.
CCC(Sc1nc2ncccc2[nH]1)C(=O)Nc1cccc(OC)c1 (stereo unspecified)	104.5	77.7	.	107.9
CN1CCCNc2nc3ccccc3nc21	77.3	87.8	-42.6	.
Cc1ccc(/C=C(\C#N)c2nc(-c3cc4c(ccc5ccccc54)oc3=O)cs2)cc1	100.5	104.2	-8.3	110.8
COc1ccc(N(C)C(=O)CCS(=O)(=O)c2cccc3nonc23)cc1	82.6	88.7	-72.2	102.6
CC(C)(C)c1ccc(C(=O)Nc2ccc(S(N)(=O)=O)cc2)cc1	2.7*	14.1*	-36.9	.

Some of these compounds in order of the GIV Gai3 FP value, largest number first.
mol | Sa growth inh second temp | GIV Gai3 FP
COc1cccc(CN2c3ccccc3-c3nc(SCC(=O)Nc4cccc(C)c4)ncc3S2(=O)=O)c1 | 85.8 | 104.9
CC(=O)OCc1c(C)c(C)c(C)c(C)c1C | 90.0 | 103.9
Cn1c(=O)c2sccc2n2c(CCC(=O)NCc3ccc(Cl)cc3)nnc12 | 100.2 | 102.7
COc1ccccc1CCNC(=O)CCn1c(=O)c2cccn2c2ccc(F)cc21 | 68.6 | 96.7

(next part)
SMILES	Sa growth inh	Sa growth inh second temp	HCMV NEC inh	GIV Gai3 FP
CC(C)(C)c1cc(NC(=O)c2nn3c(C(F)(F)F)cc(-c4ccccc4)nc3c2Br)no1	88.4	86.1	-35.3	105.5
O=C(COc1ccc(Cl)c2cccnc12)c1ccc2c(c1)OCCO2	107.1	91.7	-13.5	.
O=C(Nc1nncs1)Oc1ccccc1	111.5	79.0	-6.3	101.6
O=C(NC1CCCC1)C1CCN(Cc2cnn(-c3ccccc3)c2-n2cccc2)CC1	88.8	91.4	-14.9	99.5
Brc1cccc(-c2cn3nc(C4CC4)sc3n2)c1	87.3	51.1	-7.4	101.3
c1ccc2c(OCc3nc4ccccc4[nH]3)cccc2c1	95.3	53.9	.	106.2
COc1cccc(/C=C2/NC(=O)N(Cc3ccc(F)cc3)C2=O)c1	114.8	79.8	.	99.6
CC(C)CN(CC(C)C)Cn1nc(C2COc3ccccc3O2)oc1=S (stereo unspecified)	106.2	89.5	-39.4	.
O=C(NCc1noc2ccccc12)Nc1nccs1	108.7	82.7	.	103.9
CCOc1ccccc1N(CC)C(=O)c1cc2c(=O)[nH]c3ccc(C)cc3c2s1	107.0	82.1	3.5	106.4
Cn1c(=O)c2c(nc(NCCOCCO)n2Cc2ccc(Cl)cc2Cl)n(C)c1=O	.	.	-23.0	102.6
Cc1ccc(NC(=O)CN=C2NC(C)(C)Cc3ccccc32)cc1	97.5	99.5	-9.7	100.5
Cc1ccccc1OCc1nc2c3ccccc3ncn2n1	.	.	3.9	100.7
CCc1ccc(-c2csc3nc4ccccc4n23)cc1	15.8	19.1	-9.0	104.1
COC(=O)c1[nH]c(Cn2cc(S(=O)(=O)N3CCCC3)ccc2=O)c(C(=O)OC)c1C	89.3	94.7	-7.5	.
CCN(CC)C(C)CN1c2ccccc2Sc2ccccc21 (stereo unspecified)	91.8	86.9	-11.9&-24.5&-5.2	100.7
COc1ccccc1-c1nc2c(c(SCc3ccc(F)cc3Cl)n1)Cc1c(CO)cnc(C)c1O2	96.2	90.5	.	98.5
COc1cc(/C=C2/C(=O)NN(c3ccc(Cl)cc3)C2=O)ccc1OC(=O)c1ccco1	74.4	69.4	-25.7	102.9
CC(OC(=O)CSc1nnc(-c2ccccc2)n1-c1ccccc1)C(=O)Nc1ccccc1C#N (stereo unspecified)	102.8	95.8	1.0	.
COc1ccc(CNC(=O)C2(C)Cn3nc(C)cc3C(=O)N2c2ccc3c(c2)OCCO3)cc1 (stereo unspecified)	.	.	0.0	100.0

5 compounds from above with just Sa growth inh second temp and Sa growth inh.
SMILES	Sa growth inh second temp	Sa growth inh
COC(=O)c1[nH]c(Cn2cc(S(=O)(=O)N3CCCC3)ccc2=O)c(C(=O)OC)c1C	94.7	89.3
CCN(CC)C(C)CN1c2ccccc2Sc2ccccc21 (stereo unspecified)	86.9	91.8
COc1ccccc1-c1nc2c(c(SCc3ccc(F)cc3Cl)n1)Cc1c(CO)cnc(C)c1O2	90.5	96.2
COc1cc(/C=C2/C(=O)NN(c3ccc(Cl)cc3)C2=O)ccc1OC(=O)c1ccco1	69.4	74.4
CC(OC(=O)CSc1nnc(-c2ccccc2)n1-c1ccccc1)C(=O)Nc1ccccc1C#N (stereo unspecified)	95.8	102.8

Further structures follow:
SMILES	Sa growth inh	Sa growth inh second temp	HCMV NEC inh	GIV Gai3 FP
COc1cccc(-n2c(=O)c3c(C)c(C(=O)N(C)C)sc3n(CC(=O)Nc3ccc(C)cc3Cl)c2=O)c1	89.8	78.6	.	97.1
CCn1c(C)nc2cc(C(=O)N/N=C/c3ccccc3)ccc21	94.8	96.8	-48.0	.
O[C@@H]1[C@@H](O)[C@H](Nc2ccccc2)OC[C@H]1O	107.2	71.8	-7.3	.
Cn1c(=O)c2c(c3ccccc31)OC(=O)CC2c1cccnc1 (stereo unspecified)	104.8	86.8	-20.7	103.1
O=C(O)c1cc2oc3ccccc3c3ccccc3oc2cc1C(=O)Nc1ccc(F)cc1	90.6	73.4	.	94.5
CN1CCC/C1=c1\c(=O)n(-c2ccccc2)n2c(-c3ccc(Cl)cc3)cnc12	96.5	94.5	-2.3	.
COc1ccc(C(=O)N2N=C(c3ccc(Br)cc3)CC2(O)C(F)(F)F)cc1 (stereo unspecified)	.	.	13.9	111.4
COc1cc(/C=C2\SC(NC(C)=O)=NC2=O)cc(Br)c1OCC(=O)O	.	.	-37.2	104.4
CCC1CCCCN1C(=O)C1CCN(S(=O)(=O)c2c(C)noc2/C=C\c2ccc(OC)cc2)CC1 (stereo unspecified)	.	.	-44.3	103.5
CN=c1scc(C)n1/N=C/c1ccc(O)cc1	72.1	69.3	-59.7	.
CCCn1c(=O)[nH]c(=O)c2[nH]cnc21	.	.	1.4	100.0
CC(=O)NCc1ccc(S(=O)(=O)NC2CCN(Cc3ccccc3)CC2)cc1	90.5	93.9	-8.7	.
Cc1ccc(-c2nnc(Nc3ccccc3)c3ccccc23)cc1S(=O)(=O)N1CCOCC1	102.6	89.9	-39.7	101.5
Cc1cccc(OCc2nnc(SC(C)C(=O)c3c(C)[nH]c4ccccc34)o2)c1 (stereo unspecified)	101.5	88.7	2.8	.
O=c1c2c(nc(NCCO)n1Cc1ccccc1)-c1ccccc1CC21CCCCC1	74.9	55.4	-5.8	.
Cc1ccc(C(C)C)c(OCCn2cc(C(=O)c3ccco3)c3ccccc32)c1	85.5	83.5	-20.4	108.0
O=C(/C=C/c1ccccc1)Oc1ccc2oc(=O)sc2c1	122.4	79.5	.	98.6
CC(=O)c1ccc(NC(=O)c2cc(C3CC3)nc3c2c(C)nn3-c2ccc(C)cc2)cc1	95.7	83.8	.	104.5
COc1ccc(NC(=O)c2cc3c(=O)oc4ccccc4c3n2C)cc1Cl	.	.	-14.9	105.3
Cc1ccc(S(=O)(=O)NCc2cccn2Cc2cccc(F)c2)cc1C	.	.	-12.0	112.2
C=Cc1ccc(CSc2nc(-c3ccc(Cl)cc3)nc3c2Cc2c(CO)cnc(C)c2O3)cc1	113.6	99.6	.	105.4
CCC(C)NC(=O)C1CCCN(S(=O)(=O)c2ccc(C)c(Cl)c2)C1 (stereo unspecified)	117.0	97.7	-23.6	99.1
COc1cccc(N2CCN(C(=O)c3cc(C4CC4)[nH]n3)CC2)c1	.	.	-2.6	101.2
Cc1nc(Nc2ccc(NS(=O)(=O)c3ccc4c(c3)OCCO4)cc2)cc(N(C)C)n1	.	.	10.4	100.4
Fc1ccc(-c2ccc(SCc3nc(-c4cccc(Br)c4)no3)nn2)cc1	.	.	-8.3	101.0
Cc1noc(C)c1-c1nc(-c2cccc(C(F)(F)F)c2)no1	90.7	83.2	-37.5	103.3
Cc1cccc(CS(=O)(=O)Cc2ccc(C(=O)NCc3cccs3)o2)c1	85.7	84.3	-28.1	104.1
COc1cccc(NC(=O)CN2C(=O)c3cccnc3Sc3ccccc32)c1	.	.	-17.9	103.6
COc1ccc(OCC2c3cc(OC)c(OC)cc3CCN2C(=O)c2ccc(F)cc2)cc1 (stereo unspecified)	81.4	94.4	.	106.1
CSc1n[nH]c(N)c1C#N	91.2	71.5	-27.8	100.5
Clc1cccc(Nc2nc3ccccc3c3nncn23)c1	102.2	75.9	-15.9	103.4
CC(C(=O)NCC1CCCO1)N(C(=O)c1snc(C(N)=O)c1N)c1cccc(F)c1 (stereo unspecified)	107.6	92.6	-60.9	103.0
CCCNS(=O)(=O)c1cccc(C(=O)N2CCN(c3cccc(OC)c3)CC2)c1	74.6	86.2	-21.3	.
COc1ccc(-n2c(SCC(=O)NCc3ccccc3)nc3n[nH]c(C)c3c2=N)cc1	99.5	82.5	.	100.4
COC(=O)c1cc(S(=O)(=O)NCCN2CCN(c3ccccc3F)CC2)c[nH]1	95.3	96.2	4.5	110.0
Cc1ccc(NC(=O)CSc2nc(-c3ccco3)nc3cc(=O)[nH]n23)cc1C	79.8	61.3	.	104.0
Cc1cccc(CSc2ncc(CO)n2Cc2ccc(F)cc2)c1	145.8	108.4	.	103.4
CCc1cccc2c(C=C(C#N)C#N)cn(CC(=O)NC3CCCC3)c12	102.4	84.7	-13.6	103.9
CC(=O)NS(=O)(=O)c1ccc(Br)cc1	113.6	81.4	.	104.4
COc1ccc(N2CCN(C3C(=O)c4ccccc4N3C(C)=O)CC2)cc1 (stereo unspecified)	95.7	91.8	.	107.6
COC(=O)c1ccc2c(=O)n(CCC3=CCCCC3)c(SCc3ccc(Cl)cc3)nc2c1	76.9	89.5	.	95.8
CC(=O)c1ccc2c(c1)C1C=CCC1C(c1ccc(Cl)cc1Cl)N2 (stereo unspecified)	.	.	-26.8	107.3
Cc1cccn2c(=O)c(/C=C3\SC(=S)NC3=O)c(NCC3CCCO3)nc12 (stereo unspecified)	85.6	83.2	-31.3	185.7
Nc1ccc2nc(SCC(=O)NCCOc3ccc(Cl)cc3)sc2c1	.	.	-20.0	103.6
CCOCCCNc1ccc(-c2ccccc2)nn1	134.0	97.4	-13.7	107.3
CNS(=O)(=O)c1cccc(C(=O)N2CCN(C/C=C/c3ccccc3)CC2)c1	120.0	101.9	-3.4	.
CCN(CC)CCNC(=O)c1ccc(CSc2nc3ccncc3n2Cc2cccc(F)c2)cc1	105.0	88.7	1.0	107.4
COc1ccc(S(=O)(=O)N2CCc3cc4ccc(C)cc4nc32)cc1OC	.	.	-10.3	96.6
O=C(O)c1ccc(COc2ccccc2)o1	107.3	87.7	-13.3	.
CC1CCCC(C)N1NC(=S)Nc1ccccc1 (stereo unspecified)	122.3	99.2	-7.6	104.0
Cc1ccccc1Cn1c(SCc2ccc(C(=O)N3CCCCC3)cc2)nc2ccncc21	120.6	87.3	-5.2	99.6
Cc1ccc(NC2CC(C)N(C(=O)c3cccc(F)c3)c3cc(C)ccc32)cc1 (stereo unspecified)	.	.	-10.0	99.3
CC(C)(C)C(=O)Oc1ccccc1OC(=O)c1ccccc1	107.7	88.8	-13.0	.

Random draw from the library; 0.85% or so of the library scored in one or more.
